GLA inh pH 4.5: inhibitors of human alpha-galactosidase A at pH 4.5 | activity change, negative = inhibition, % at 105 µM | purified enzyme, 4-MU-alpha-Gal fluorescence, pH 4.5 | P06280 | AID 1467 | 230,000 tested, under 10 active; inconclusive = small, poorly fitted or top-dose-only inhibition, or a rising curve; inactive = flat fitted curve, though single readings scatter; no compound was filed as active;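 also: 0% = full activity with enzyme and -100% = basal without enzyme; dose as in the result columns while the protocol names 77 µM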
Target sequence (P06280 whole entry, looked up): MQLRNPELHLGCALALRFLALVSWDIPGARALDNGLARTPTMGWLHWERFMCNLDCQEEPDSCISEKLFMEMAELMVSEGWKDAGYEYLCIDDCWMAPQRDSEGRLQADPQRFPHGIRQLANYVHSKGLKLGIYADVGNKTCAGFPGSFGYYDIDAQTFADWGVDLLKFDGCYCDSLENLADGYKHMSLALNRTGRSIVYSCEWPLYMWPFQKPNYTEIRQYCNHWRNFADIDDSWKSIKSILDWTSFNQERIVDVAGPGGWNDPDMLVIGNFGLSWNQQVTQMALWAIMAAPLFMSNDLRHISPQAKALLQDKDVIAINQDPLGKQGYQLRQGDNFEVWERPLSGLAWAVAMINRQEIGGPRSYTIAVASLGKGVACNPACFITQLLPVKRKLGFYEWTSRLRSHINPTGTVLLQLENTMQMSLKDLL
Rango dissoc inh: inhibitors of RanGTP-induced Rango-importin beta complex dissociation. O95149+P62826. Biochemical FRET Rango-importin beta, RanGTP-induced dissociation. Potency, µM (top dose mostly 46.1 µM), without a hit: at the top dose activity change, negative = inhibition. 340,000 compounds, 0.071% hits. AID 540253; active means falling FRET ratio curve, often poorly fitted, with flat reads before Ran was added; inconclusive means other falling curves, or compound fluorescence or quenching; inactive means flat or rising ratio curve;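 also: potency is read from the fitted curve at half-maximal effect; % of control where 0% means no effect; nearly all actives have a fitted effect of over 45% in size; -100% = wells without RanGTP and RCC1; the record marks most hits as doubtful in a second field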
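FRET read at 45 min, room temperature: inhibitors block the CFP/YFP signal rise when RanGTP (0.6 uM Ran, 2 mM GTP, 0.2 uM RCC1) frees Rango (0.1 uM) from importin beta (0.25 uM). Pre-read after 5 min compound exposure flags interference.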
miR-21 reporter: raises the signal of a miR-21 reporter | HeLa miR-21 FLuc reporter, luciferase, 48 h | Potency, µM (doses to about 38.3 µM), without a hit: at the top dose reporter change, positive = more light | 340,000 tested, under 10 active | AID 2288; active = well fitted rising curve with a large enough effect; inconclusive = small, poorly fitted or top-dose-only effect; inactive = no such curve, though single readings can be large or run the other way;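 also: % of control where 0% means no effect; miR-21 action dims this reporter so a rising signal means less miR-21 action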
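Compounds were titrated across several concentrations (up to approximately 40 uM) and incubated 48 hours with HeLa miR-21-FLuc reporter cells (miR-21 target sequence downstream of FLuc, endogenous miR-21). Readout was firefly luciferase luminescence after lytic detection reagent.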
Rango-impB inh: prevents formation of the Rango-importin beta complex | 340,000 compounds, 0.031% hits | Rango CFP/YFP FRET sensor + importin beta, 45 min | AID 540263 | Q14974 | Potency, µM (doses to about 92.2 µM), for the others: at the top dose inhibition of complex formation; active = rising FRET ratio curve, often small or poorly fitted; inconclusive = mostly compound fluorescence or quenching in the first reads; inactive = flat curves in all reads;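 also: potency is read from the fitted curve at half-maximal effect; 0% = DMSO wells and 100% = buffer wells lacking importin beta; nearly all actives have a fitted effect of over 15% in size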
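FRET biosensor Rango (snurportin 1 IBB between N-terminal EYFP and C-terminal Cerulean), 50 nM in PBS/1 mM DTT/0.02% Tween-20/0.1% BSA, preincubated 5 min RT with compound; 0.125 microM importin beta added, 45 min RT, CFP/YFP FRET ratio read.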
* hit, by the source's call; u = inconclusive; x = not tested or not shown; & = joins results of further samples. This is a subset; the hit share may differ from the screen's.

SMILES	GLA inh pH 4.5	Rango dissoc inh	miR-21 reporter	Rango-impB inh
CCOC(=O)Cc1cn2c(=O)cc(CSCC(=O)Nc3ccc(C)c(C)c3)nc2s1	-2	-6%	-5%	-0.8%
O=C(NCc1cccs1)c1cc(-c2ccncc2)nc2ccc(Br)cc12	-7	x	0%	x
NC(=O)CC(NC(=O)Cc1cccc2ccccc12)c1ccc(N2CCN(c3ccc(F)cc3)CC2)c([N+](=O)[O-])c1 (stereo not given)	4	-10%	-1%	1.5%
O=C(CCN1C(=O)c2ccccc2S1(=O)=O)N1CCN(c2cccc(Cl)c2)CC1	x	16%	x	-4.9%
COC(=O)[C@@]1(Cc2ccc(OC)cc2)[C@H]2c3cc(C(=O)N4CCCC4)n(Cc4ccc(OC)c(OC)c4)c3C[C@H]2CN1C(=O)c1ccccc1	-22&-4	x	-21%	x
O=C(CSc1nnc(CNc2ccc(F)cc2)o1)OC1CCCCC1	0	-6%	-1%	1.3%
O=C(N/N=C/c1ccc(O)c2ncccc12)c1cccc(Br)c1	-11	u	u	3.1%
CC1=C(C(=O)OCc2ccccc2)C(c2ccccc2)NC(=O)N1 (stereo not given)	x	8%	2%	0.0%
Cc1cc(N2CCN(c3ccccc3)CC2)n2c(n1)nc1ccccc12	0	48%	6%	6.5%
O=C(NCc1ccccn1)C(=O)Nc1cc2c3c(c1)CC(=O)N3CCC2	x	12%	x	-3.8%
c1ccc(-c2noc(-c3ccc4ccccc4c3)n2)cc1	-7	0%	-56%	5.3%
O=C(CCNS(=O)(=O)c1cccs1)NCc1ccco1	-2	-13%	-4%	-1.8%
COc1cc(C(=O)NCc2nnc(SCC(=O)Nc3cccc(C(F)(F)F)c3)o2)cc(OC)c1OC	x	0%	1%	0.5%
Nc1c(N(Cc2ccco2)C(=O)c2ccccc2F)c(=O)[nH]c(=O)n1Cc1ccccc1	x	14%	x	-5.5%
Cc1ccccc1NC(=O)C(=O)NCCCN1CCOCC1	0	7%	-5%	6.5%
CCC/C=N/NC(=O)c1cc(Br)ccc1O	-5	-5%	-5%	-4.0%
O=C(O)C(O)(c1ccccc1)C(O)c1ccccc1 (stereo not given)	x	-6%	x	3.1%
Cc1cc2ccccc2c(=O)n1CC(=O)NCC(=O)N1CCN(c2ccccc2F)CC1	3	7%	-5%	-1.3%
O=C1c2ccccc2S(=O)(=O)c2cc(C(=O)N3CCN(c4ccc(Cl)cn4)CC3)ccc21	x	0%	x	0.5%
Cc1cc(NC(=O)Cn2nc(C(F)(F)F)c3c2CCCC3)no1	4	-3%	-4%	3.5%
O=C(CSc1ccc(-c2ccc(F)cc2)nn1)N1CCCCC1	2	-18%	-34%	-2.4%
COc1ccccc1NC(=O)C(O)C(O)C(=O)Nc1ccccc1OC (stereo not given)	-18	5%	-3%	0.2%
COc1ccccc1OCCNC(=O)CNC(=O)c1ccc(Cl)c(Cl)c1	x	-10%	x	4.3%
CCc1nn2c(NCCOC)cc(C)nc2c1-c1ccc(F)cc1	3	-6%	-6%	1.9%
S=C(c1ccc(-c2cccc(Cl)c2)o1)N1CCCCC1	2	-5%	-64%	-1.7%
COc1cccc(CN2CCN(Cc3ccc4cccc(F)c4n3)CC2CCO)c1 (stereo not given)	x	3%	4%	-0.6%
Cc1cccc(-n2nnc(C(=O)NCc3ccc4c(c3)OCO4)c2N)c1	-1	-2%	-4%	1.9%
O=c1c(-c2ccccc2)nc(-c2ccccc2)cn1O	5	-13%	-17%	u
Cc1nnc2c(NCCC(C)C)nc3ccccc3n12	x	1%	5%	-3.2%
Cc1nc2nc(NC(=O)c3ccco3)[nH]n2c(=O)c1C	x	-2%	-2%	0.1%
O=C(CCN1CCN(c2ccc(Cl)cc2)CC1)Nc1ccccc1F	5	6%	-2%	1.2%
CS(=O)(=O)N1CCC(C(=O)Nc2ccc(Cl)c(C(F)(F)F)c2)CC1	-13	6%	3%	-5.1%
COc1ccc(C(=O)N(Cc2ccccc2)c2ccc(C)cc2)cc1S(=O)(=O)N1CCOCC1	x	19%	x	u
COc1ccc2[nH]c(-c3cccc(F)c3)cc(=O)c2c1	-5&12	-12%	-24%	4.9%
COc1ccc(-c2nn(-c3ccccc3)cc2/C=C2/SC(=S)N(CCC(=O)O)C2=O)cc1	x	2%	-12%	1.6%
CC(C)(C)NC(=O)CN(Cc1ccc2c(c1)OCO2)C(=O)CCC(=O)Nc1nccs1	8	-3%	-25%	0.0%
CN(CC(=O)Nc1ccccc1-c1ccccc1)Cc1ccccc1Cl	-25	17%	0%	-0.6%
Cc1cccc(C)c1NC(=O)c1sc(Cl)nc1C	2	-9%	-12%	-0.3%
COc1ccc(OC)c(NC(=O)COC(=O)C2CCCCC2)c1	x	-10%	x	-1.2%
Cc1noc(NC(=O)c2ccccc2Cl)c1C#N	-6	-5%	-9%	1.6%
O=C(NCc1ccncc1)c1ccc(Cn2cc(C(F)(F)F)ccc2=O)cc1	-7	19%	-1%	1.0%
Brc1ccc(-c2nc(-c3ccncc3)no2)cc1	x	24%	-20%	-1.2%
COc1ccccc1C(=O)COC(=O)Cn1c(C)csc1=O	x	19%	x	-1.5%
O=C(CSc1nnc2c(n1)[nH]c1ccc(S(=O)(=O)N3CCOCC3)cc12)Nc1ccccc1Cl	-4	13%	-8%	-1.3%
Cc1c(-c2cc(C(=O)O)no2)cnn1C	2	3%	-35%	0.2%
O=C1[C@H](Cc2ccccc2)NCC=CC[C@@H](c2ccco2)N1Cc1ccccc1	x	u	x	u
CC(=O)c1ccc(N2CCN(C(=O)c3cc(C)on3)CC2)cc1	-3	9%	-20%	-4.2%
Cc1ccc(S(=O)(=O)N(C)C)cc1NC(=S)NCCCn1ccnc1	-5	0%	1%	-1.7%
Cc1ccc(NS(=O)(=O)c2cccc(C(=O)O)c2)c(C)c1	4	-5%	-1%	3.2%
Cc1ccc(-c2nc(=O)[nH]c3ccc(Br)cc23)cc1	x	-12%	0%	-1.9%

Part of the list above in order of formula weight, rising.
SMILES	GLA inh pH 4.5	Rango dissoc inh	miR-21 reporter	Rango-impB inh
Cc1c(-c2cc(C(=O)O)no2)cnn1C	2	3%	-35%	0.2%
Brc1ccc(-c2nc(-c3ccncc3)no2)cc1	x	24%	-20%	-1.2%
Cc1ccc(NS(=O)(=O)c2cccc(C(=O)O)c2)c(C)c1	4	-5%	-1%	3.2%
O=C1[C@H](Cc2ccccc2)NCC=CC[C@@H](c2ccco2)N1Cc1ccccc1	x	u	x	u

(list continues)
SMILES	GLA inh pH 4.5	Rango dissoc inh	miR-21 reporter	Rango-impB inh
COC(=O)c1ccc(/C=C2/C(=O)Oc3ccccc32)cc1	x	5%	0%	-2.5%
CC(C)(C)NC[C@H](O)COc1cccc2c1CCCC2=O	4&-5	10%	x	u
COc1ccc(C(=O)c2cc([N+](=O)[O-])ccc2N2CCN(C)CC2)cc1	-6	3%	16%	3.7%
CCn1cc(C(=O)OCC(=O)OC2CC(C)CCC2C(C)C)c(=O)c2ccc(C)nc21 (stereo not given)	u	8%	3%	2.8%
CCN(CC)S(=O)(=O)c1ccc(NC(=O)Nc2cccc(C(F)(F)F)c2)cc1	-15	18%	u	1.0%
N#Cc1ccc(CSc2nnc(NC(=O)c3ccc4ncsc4c3)s2)cc1	-4	0%	5%	-0.7%
CC(C)=CC(=O)Nc1nnc(-c2ccccc2C)s1	-1	-4%	-47%	-0.4%
Cc1cccc(NS(=O)(=O)c2cccc(C(=O)N3CCCC3)c2)c1	x	-6%	x	4.2%
COC(=O)[C@@]1(Cc2ccc(OC)cc2)[C@H]2c3cc(C(=O)N4CCCC4)n(CCc4c[nH]c5ccc(O)cc45)c3C[C@H]2CN1C(=O)c1ccccc1	-13&-13	x	-11%	x
Cc1ccc(CS(=O)(=O)c2cn(CC(=O)Nc3ccon3)c3ccccc23)cc1	x	1%	x	-2.6%
CN(C)CCN(C(=O)C1=COCCO1)c1nc2ccc(Cl)cc2s1	x	18%	-31%	0.7%
COc1ccccc1NC(=O)Nc1ccc(F)c(F)c1	1	12%	-12%	-0.5%
O=[N+]([O-])c1ccc(CCNc2cccc3ccccc23)c([N+](=O)[O-])c1	1	15%	1%	-0.2%
COc1ccc(CNC(=O)c2cc(-c3cccs3)on2)cc1	-3	13%	-27%	-4.3%
Cc1cc(C)cc(N(CC(=O)Nc2cc(C)ccc2C)S(=O)(=O)c2c(C)[nH]c(=O)[nH]c2=O)c1	x	4%	1%	1.4%
Cc1ccc(-n2ccnc(SCC(=O)NC3CCCCC3)c2=O)cc1F	x	-1%	x	7.3%
CCOC(=O)C1(CCOC)CCN(C(C)CCc2ccc(OC)cc2)CC1 (stereo not given)	-23	30%	-2%	3.4%
COc1cccc2c(SCC(=O)N/N=C/c3ccc(O)c(O)c3)cc(C)nc12	-7	-5%	0%	-1.5%
COc1cccc(CN(C)C(=S)Nc2cccc(C)c2)c1	-1	-13%	-2%	-1.5%
c1ccc(CSc2nnc3ccc(-c4ccncc4)nn23)cc1	-1	-2%	-7%	1.6%
CCCN(CCC)CCCNC(=O)Cn1cnc2sc(C)c(S(=O)(=O)N3CCC(C)CC3)c2c1=O	x	u	-1%&9%	-0.5%
CN(CC(=O)Nc1ccccc1Cl)C(=O)Cn1cc(C(F)(F)F)cc(Cl)c1=O	x	-5%	x	1.1%
Cc1cccc(OCCOC(=O)Nc2ccccc2)c1	-1	-10%	-27%	0.3%
O=C(NCc1ccccc1)c1ccc(CN(c2ccccn2)S(=O)(=O)c2ccccc2)cc1	-2	1%	0%	-3.7%
O=C(Nc1ccccc1C(=O)NCCc1ccccc1)c1cnccn1	x	12%	-40%	-2.3%
O=c1[nH]c(C2CCN(S(=O)(=O)/C=C/c3ccccc3)CC2)nc2c1nnn2Cc1ccc(F)cc1	x	-2%	0%	-0.9%
O=C(NC1CCSC1)c1cccc(Cl)c1 (stereo not given)	10	1%	-4%	1.2%
CC(=O)NC1=NN(C(C)=O)C(C)(c2ccco2)S1 (stereo not given)	8	-13%	-31%	3.4%
O=C(NC(=S)N1CCOCC1)c1cn(-c2ccccc2)nc1-c1ccc(F)cc1	x	1%	x	0.2%
O=C(c1cccs1)C1C(c2ccc(Br)cc2)NC(=S)NC1(O)C(F)(F)F (stereo not given)	2	9%	12%	13%
O=[N+]([O-])c1c(NCc2ccccc2)cc(N2CCc3ccccc3C2)c2nonc12	9	u	-2%	u
O=C(Cc1cccs1)N(CC1CCCO1)C1(C(=O)NC2CCCCC2)CCCCC1 (stereo not given)	4	-6%	2%	-0.8%
CC(C)COc1ccc(CSCCNC(=S)Nc2ccccc2)cc1	8	-1%	u	-1.5%
CC(C)(C#CCN1CCCC1)OCCC#N	6	7%	-1%	-1.8%
CCOC(=O)c1sc2nc(C)c3c(c2c1N)CC(C)(C)OC3	16	4%	2%	1.4%
CC(C)CNC(=O)c1cccc(NC(=O)COc2cccc([N+](=O)[O-])c2)c1	5	17%	21%	3.3%
O=C(N/N=C/c1ccc(OC(=O)c2ccccc2Cl)cc1)c1ccc(O)cc1	x	1%	-6%	-4.2%
Cc1c(C(=O)N2CCCC2)oc2c1-c1[nH]ncc1CC2	1	-3%	-2%	-1.8%
CCC(=O)c1c[nH]c(C(=O)NCc2ccco2)c1	1	2%	0%	0.0%
CCNc1nc(Cl)nc(-c2cn(-c3ccccc3)c3ccccc23)n1	18	28%	-9%	-2.5%
O=C(CCCCN1CCCCC1)c1ccccc1	x	8%	x	1.1%
Cc1ccc(S(=O)(=O)N(C)C)cc1NC(=S)NNC(=O)C(N)=O	2	-4%	-3%	0.7%
COc1cc(C(=O)NS(=O)(=O)c2ccccc2C)ccc1Cc1cn(C)c2ccc(NC(=O)OC3CCCC3)cc12	3	x	-14%	x
CCOc1ncccc1C(=O)NNC(=O)CSc1ccc(Cl)cc1	x	-11%	x	-2.6%
CCOc1ccc(S(=O)(=O)N(CC)CC(=O)NCc2cccnc2)cc1C	x	6%	10%	0.0%
